NPYLR7 ag: agonists of mosquito NPYLR7 receptor, primary screen, cell-based, Aedes aegypti, calcium fluorescence, mosquito biting behavior; AID 1259423, 2018; Aedes aegypti neuropeptide Y-like receptor 7 (NPYLR7); activation, % at 10 µM; HEK293T NPYLR7/Galpha15, GCaMP6s calcium fluorescence; 270,000 tested, 0.15% active; in the data active means activation above about 40%;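 further: 0% = vehicle and 100% = reference agonist at the receptor; some compounds past the cut are filed as inactive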
NPYLR7 ag max-min: second read-out of NPYLR7 ag, no call of its own (marks repeat the call); activation, %; measured here: Max-Min RFU normalised activation; some inactives read as strong as hits;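 span of the calcium signal over five minutes; 0% = vehicle and 100% = native peptide agonist; compound fluorescence can raise it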
An asterisk follows results filed as active; & = joins results of further samples. Some of the compounds tested; rates above refer to the full screens.

Second line of a record – NPYLR7 ag max-min, NPYLR7 ag
CCNC(=O)C1(C)CCCCN1CC(=O)c1ccc(C)cc1C (centres undefined)
  3, 5
COc1cccc(CNC(=O)C2CCN(C(=O)[C@H](Cc3ccccc3)NC(=O)Nc3c(F)cc(Br)cc3Br)CC2)c1
  -1, 2
CC(C)(C)n1ncc2c(=O)n(NC(=O)c3cc(=O)c4ccccc4o3)cnc21
  2, 4
Cc1ccc(N)cc1N1CCCS1(=O)=O
  13, 13
C=CCNC(=O)CCCn1c(=O)[nH]c2ccsc2c1=O
  -2, 1
CC(C)N(Cc1cccc(OS(=O)(=O)c2ccc(F)cc2)c1)C(=O)Nc1ccc(Cl)cc1
  -6, -13
CCCc1c(C(=O)Nc2cccc(-c3cccc(-c4cc(OC)ccc4OC)n3)c2)cnn1-c1ccccc1
  22, 19
CCOC(=O)CNC(=O)Nc1ccc(N2CCC(C)CC2)c(C(=O)NCCCOC)c1
  -3, -3
CCOCCCN(CC(=O)N(CCc1ccc(OC)c(OC)c1)Cc1ccc(C)o1)C(=O)c1ccc(Cl)c(Cl)c1
  -10, -11
O=C(O)CSc1ccc2c3c(cccc13)C(=O)c1ccccc1-2
  85*, 94*
CCc1cc(Oc2cccc(C)c2)nc(SCc2cc(F)cc(F)c2)n1
  18, 13
CC(C)C(NC(=O)Cn1nc2ccccc2n1)c1nnc2n1CCNCC2 (centres undefined)
  -1, 1
CC1CCN(C(c2ccc([N+](=O)[O-])cc2)C2Sc3nc(-c4ccco4)nn3C2=O)CC1 (centres undefined)
  -2, 0
COCCn1c(=O)c2c(nc3n(-c4ccc(C(F)(F)F)cc4)c(C)c(C)n23)n(C)c1=O
  8, 8
N#Cc1ccc(NC(=O)NCc2ccc(OCc3cccnc3)cc2)cc1
  -1, 2
CC(C)(C(=O)Nc1nnc(-c2ccccn2)s1)c1ccccc1F
  13, 18
COc1ccc(O)c(C=NNC(=O)c2sc3ccccc3c2O)c1
  -6, -3
CCCCCc1ccc(C(=O)N(CC(=O)N2CCc3sccc3C2c2ccc(Cl)cc2Cl)CC2CCCO2)cc1 (centres undefined)
  -3, -7
O=C1OC(c2ccc(Cl)cc2)=NC1=Cc1ccc(N2CCOCC2)s1
  10, 2
O=C(NC(c1ccc(F)cc1)c1ccc2ccccc2n1)C1CCN(C/C=C/c2ccccc2)CC1 (centres undefined)
  30, 36
CCOc1ccccc1C1CC(=O)NC(SCC(=O)OC)=C1C#N (centres undefined)
  -9, -3
O=C(Nc1ccc(N2CCNC2=O)cc1)C1CCCN(C(=O)N2CCCC2)C1 (centres undefined)
  2, 2
CC(C)c1ccc(S(=O)(=O)N2CCN(c3ccncc3)CC2)cc1
  -3, -1
COc1cccc(C2CCN(C(=O)c3cccc(NCC(=O)O)c3)C2)c1OC (centres undefined)
  2, 6
S=c1nc(-c2ccccc2Br)[nH]n1CN1CCN(Cc2ccccn2)CC1
  2, 6
CC(C)C(NC(=O)c1ccccc1)c1nnn(Cc2ccccn2)n1 (centres undefined)
  1, 2
CC(Cn1cccn1)C(=O)NCc1cccnc1N(C)C (centres undefined)
  -1, -1
CCSc1nnc2c(n1)OC(C)(CC)Nc1ccccc1-2 (centres undefined)
  54, 1
O=C(CCN1C(=O)c2cccc([N+](=O)[O-])c2C1=O)Nc1ccc(N2CCCCC2)cc1
  -9, -5
O=[N+]([O-])c1ccc(S(=O)(=O)NCc2ccc(Cl)cc2)cc1
  31, 31
CCc1nc2ccc(C(=O)Nc3cccc(OC)c3)cn2c1N(C)Cc1ccc(Cl)cc1
  6, 1
O=c1[nH]c(=O)n(C2C[C@H](O)[C@@H](CO)O2)cc1C(F)(F)F (some centres undefined)
  -8&2, 1&15
COCCNC(=O)C1(C)CCCN(CCOc2ccc(Cl)cc2)C1 (centres undefined)
  -1, 4
N#CC(C=Nc1ccc2c(c1)OCO2)c1nc(C2CC2)cs1 (centres undefined)
  1, 4
Cc1[nH]n(-c2ccccc2)c(=O)c1N=Nc1ccc(-c2ccccc2)cc1[N+](=O)[O-]
  -3, 3
Cn1c(=NC(=O)C2=COCCO2)sc2cc(F)ccc21
  -1, 2
CCC(C)Sc1nnc(-c2cn(C)nc2OC)n1CC (centres undefined)
  11, 11
Cc1cc(C)c(OCC(=O)N2N=C(c3ccccc3)CC2(O)C(F)(F)F)c(C)c1 (centres undefined)
  -24, -15
CC1CN(C(c2ccccc2)C2Sc3nc(-c4ccco4)nn3C2=O)CC(C)O1 (centres undefined)
  -7, -5
CCOc1cc(NC(=O)N2CCC(c3nc(C)no3)CC2)ccc1C
  -1, 0
Cc1noc(-c2ccco2)c1C(=O)NCCC1CCCN1C (centres undefined)
  18, 17
CCOC(=O)c1cccnc1Oc1cccc(NC(=O)c2ccoc2)c1
  -21, -15
CN(C)C(=O)Cn1nc(-c2ccccc2)c2ccccc2c1=O
  3, 2
Cc1ccc(NC(=O)CC(=O)NCc2ccccc2-n2cncn2)cc1
  -5, 0
CCCC(=O)Nc1cccc(C(=O)N(C)Cc2cc(C(C)(C)C)n[nH]2)c1
  -4, 7
O=C(COc1cc(Cl)ccc1Cl)NCc1nc2ccccc2[nH]1
  0, 5
Cc1ccnc(SCc2cc(=O)c(OC(=O)c3ccc(Cl)cc3)co2)n1
  -11, -16
CC(=O)Nc1ccc(SCCCC(=O)N2CCN(C)CC2)nn1
  -2, -1
COc1ccc(-n2ccnc2CN2CCOC(CN)C2)cc1 (centres undefined)
  16, 17
N#Cc1c(-c2ccc3c(c2)OCO3)csc1N
  -6, -3
CCOC(=O)C(C)(C)N(C)CC(=O)NC1CCCC1
  -2, 0
COc1ccc(CN(Cc2ccc(F)cc2)Cc2nc(C(=O)O)co2)c(OC)c1
  12, 10
COc1ccc(OC)c(NC(=O)Cn2cccc(-c3nc(-c4ccc(C)cc4)no3)c2=O)c1
  -5, -1
Clc1ccc2nc(Cl)nc(-c3ccccc3)c2c1
  -10, -6
O=C(Cc1cccnc1)NCCCn1cccc1
  -3, 0
O=c1[nH]cnc2scc(-c3cccs3)c12
  10, 4
CC(C)CN[C@H]1[C@H](O)C[C@@H]2CC(C)(C)OC[C@]21O
  15, 3
COc1ccc(NC(=O)N(Cc2cccc(OS(=O)(=O)c3ccc(F)cc3)c2)C(C)C)c(OC)c1
  1, 6
O=C(c1ccccc1C1CCNC1)N1CCC(O)(c2cccnc2)CC1 (centres undefined)
  2, 3
c1ccc2c(c1)ncn2-c1ccc(CN2CCCC2)cc1
  -9, -10

Next structures follow:
Second line of a record – NPYLR7 ag max-min, NPYLR7 ag
CN(C)CCN(C(=O)c1ccc2ccccc2c1)c1nc2c(F)cccc2s1
  -8, -5
CN(C(=O)c1ccc(N2C(=O)C3C4C=CC(C4)C3C2=O)cc1)c1ccccc1 (centres undefined)
  5, 5
CC(C)(C)S(=O)(=O)c1ccc(C(=O)O)s1
  -4, -3
O=C(CC1CCCC1)N1CCN(c2nccn2-c2cccc(Cl)c2)CC1
  7, 3
Nc1nc(-c2ccc(F)c(F)c2)cs1
  8, 2
Cc1cc(C(=O)N/N=C\c2cc(Br)ccc2O)n[nH]1
  0, 4
CCOC(=O)[C@@H]1CN(C(=O)OCC(C)C)[C@H]2c3cccc(F)c3O[C@@H]12
  8, -3
C(=C\c1nn2c(Cn3cnc4ccccc43)nnc2s1)/c1ccccc1
  7, 15
CSc1cccc(NC(=O)N2CCC(CCC(=O)N(C)Cc3ccccc3)CC2)c1
  -3, 0
Clc1ccc(CN2CCN(c3cc(Oc4ccc(Cl)cc4)ncn3)CC2)cc1
  5, 4
Oc1cccc(-c2cn(Cc3scnc3-c3ccccc3)nn2)c1
  -1, 3
Cc1ccc2nc(-c3cccc(Cl)c3)c(NC(=O)Cc3ccccc3)n2c1
  -1, -6
O=C(CCS(=O)(=O)c1ccccc1)N(Cc1cccnc1)c1nc2cc3c(cc2s1)OCO3
  2, -5
COc1ccc(OC)c(CN(C(=O)[C@@H]2C[C@H](N)CN2C)C2CCCC2)c1
  -13, -6
O=C(Cn1cncn1)NN=Cc1cccs1
  1, 4
C(=C\c1ccccc1)/C1=NN(c2ccccc2)C(c2ccccc2)C1 (centres undefined)
  -2, 1
CC(C)N(Cc1nccn1C)C(=O)c1cc(Cl)c[nH]c1=O
  -2, 0
O=C(c1cnccn1)N1CCN(c2ccc(C(F)(F)F)cc2[N+](=O)[O-])CC1
  0, 5
Cc1nn(C)c(Cl)c1CN1CCCC(C(=O)c2ccc(C(F)(F)F)cc2)C1 (centres undefined)
  1, 8
CCN1CCN(C(=O)c2cc(-c3ccccc3)nc3c2c(C)nn3C2CCS(=O)(=O)C2)CC1 (centres undefined)
  7, 2
C=CCc1c(C)nc2c(-c3ccccc3)cnn2c1NCCCN1CCOCC1
  1, 3
CC(C)C(=O)N(Cc1nccn1Cc1ccccc1C(F)(F)F)C1CCCCC1
  29, 24
COc1ccc(OC)c(NC(=O)CSc2nc(=O)n(CCN3CCOCC3)c3c2CCC3)c1
  -3, -1
O=C(c1ccc([N+](=O)[O-])o1)N(Cc1cccnc1)c1nc2c(Cl)cccc2s1
  -7, -25
CN(Cc1ccsc1)C(=O)CNC(=O)N1CCc2ccccc2C1
  -26, -25
COCCN(Cc1cnn(C)c1)C(=O)c1ccc2[nH]c3c(c2c1)CCCC3
  -6, 2
O=C1NC(=S)N/C1=C\c1ccc(-c2ccc([N+](=O)[O-])cc2)o1
  -6, -5
COc1cccc(C2C(C(=O)c3ccc(C)o3)=C(O)C(=O)N2CCN(C)C)c1 (centres undefined)
  5, 7
Cc1ccccc1C(=O)N[C@@H]1CCCCC1NC(=O)C1CCN(C(=O)c2ccccc2Br)CC1 (some centres undefined)
  15, 1
CCOc1ccc(F)cc1NC(=O)C(=O)N(C)CCc1ccccc1
  6, 8
CCC(Sc1ccccc1)C(=O)N(C)C1CCS(=O)CC1 (centres undefined)
  -2, -2
Cc1nonc1CN(C)C(=O)c1cn(CC2CCCCC2)nn1
  -1, -2
CC1(C)OCC(C2OC(Nc3ccc(CCCC(=O)NCCCN4CCCC4=O)cc3)[C@H]3OC(C)(C)O[C@@H]23)O1 (some centres undefined)
  -12, -6
Cc1ccc(NC(=O)c2csc(CSc3nnc(-c4ccco4)n3-c3ccc(F)cc3)n2)cc1
  26, 14
CC(C)NC1CCCN(c2ncnc3c(Br)cccc23)C1 (centres undefined)
  2, 2
CN(Cc1ccccc1)C(=O)c1ccc(Nc2nc(C(N)COCc3ccccc3)cs2)nc1 (centres undefined)
  -12, -3
COCCNc1ncnc2c1nc1n2CCCCC1
  2, 6
O=C1CCC(=O)N1OCCCCOc1ccccc1OCc1ccccc1
  6, 6
CC(C)NC(=O)CN1CCN(Cc2nc(-c3ccc(Cl)cc3)no2)CC1
  -1, 2
Cc1cc(C)cc(NC(=O)Cn2c(-n3nc(C)cc3C)nc(C)c(C)c2=O)c1
  4, -3
O=C(NCCc1ccccn1)c1cccc(Nc2c(Oc3ccc4c(c3)OCO4)cnn(-c3cccc(Cl)c3)c2=O)c1
  13, 10
COCCN1C(=O)N(C(C)C)C(=O)C12CCN(Cc1cccc(Oc3ccc(Cl)cc3)c1)CC2
  -4, 3
Cc1ccc(-c2nn(-c3cc(Cl)ccc3[N+](=O)[O-])c(=O)c3ccccc23)c(C)c1
  -17, -8
COc1cccc(CN2C[C@@H]3[C@H](C2)[C@H]2CC[C@@H]3O2)c1OCCN1CCOCC1
  6, 8
CCCCC(C(=O)OCC)N1C(=O)C2CC=C(Cl)CC2C1=O (centres undefined)
  31, 36
O=C(CSc1nc(=O)n(Cc2ccncc2)c2c1CCC2)N1CCCc2ccccc21
  -1, 2
CCOC(=O)c1cnc(-c2cccc(C(F)(F)F)c2)nc1NCCCN(C)c1ccccc1
  26, 45
Cc1nc(C)c(-c2n[nH]c(=S)o2)s1
  6, 7
CC(C)[C@H](NC(=O)C12CC3CC(CC(C3)C1)C2)C(=O)O
  19, 10
Cc1ccc(-n2ncc3c(C)nn(CC(=O)Nc4ccc5c(c4)OCCO5)c(=O)c32)c(C)c1
  3, 5
NS(=O)(=O)c1ccc(N=Nc2c(-c3ccc([N+](=O)[O-])cc3)[nH]n(-c3ccccc3)c2=O)cc1
  -9, -4
CC(C)S(=O)(=O)NC(=O)C1(C)CCN1C(=O)c1cccc(F)c1 (centres undefined)
  2, 2
CCOC(=O)C(Cc1ccccc1)N(Cc1cc(Br)ccc1OCC)C(=O)c1cc(-c2cccc(Br)c2)nc2ccccc12 (centres undefined)
  -13, -9
CCN(C(=O)c1cnc2scc(C)n2c1=O)c1ccccc1C
  0, 5
COc1cccc(C2=NN(C(=O)CN3CCC4(CC3)OCCO4)C(c3ccccc3F)C2)c1 (centres undefined)
  6, -3
Nc1ccc(S(=O)(=O)NC2(C(F)(F)F)C(=O)Nc3c2c(=O)[nH]c(=O)n3-c2ccccc2)cc1 (centres undefined)
  -17, -12
COCC(=O)Nc1ccc(N2CCN(C(=O)CCC3CCCC3)CC2)nc1
  -2, -6

Among those listed so far, these have bromine:
Second line of a record – NPYLR7 ag max-min, NPYLR7 ag
COc1cccc(CNC(=O)C2CCN(C(=O)[C@H](Cc3ccccc3)NC(=O)Nc3c(F)cc(Br)cc3Br)CC2)c1
  -1, 2
S=c1nc(-c2ccccc2Br)[nH]n1CN1CCN(Cc2ccccn2)CC1
  2, 6
Cc1cc(C(=O)N/N=C\c2cc(Br)ccc2O)n[nH]1
  0, 4
Cc1ccccc1C(=O)N[C@@H]1CCCCC1NC(=O)C1CCN(C(=O)c2ccccc2Br)CC1 (some centres undefined)
  15, 1
CC(C)NC1CCCN(c2ncnc3c(Br)cccc23)C1 (centres undefined)
  2, 2
CCOC(=O)C(Cc1ccccc1)N(Cc1cc(Br)ccc1OCC)C(=O)c1cc(-c2cccc(Br)c2)nc2ccccc12 (centres undefined)
  -13, -9

Screening results as filed in PubChem.
